Arbovirus inh: blocks arbovirus infection. hit rate 0.37% among 200,000. inhibition, % at 10 µM. arbovirus infection cell-based antiviral screen;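 active = inhibition from about 30%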;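 also: bluetongue infection of BSR cells; cell survival read as ATP light after 72 h; 0% = infected wells without compound and 100% = uninfected wells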
Mtb H37Rv: M. tuberculosis H37Rv growth inhibitors, H37Rv strain (AID 1626). M. tuberculosis H37Rv growth inhibition; higher % means a stronger effect. inhibition, % at 10 µM; hits with a dose series show IC50 in µM. hit rate 0.95% among 220,000;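 active = confirmed in a dose series; inconclusive = inhibition above 80% but not taken into the dose series; inactive = below 80% or under 30% at every dose of the series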;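 also: bacteria incubated seven days before Alamar blue readout; 0% = bacteria only wells and 100% = bacteria with antibiotic wells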
YopH PTP inh: YopH (Yersinia) phosphatase inhibition; hit rate 0.16% among 140,000; fluorescence Ex485/Em525; inhibition, %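 (about 10 µM by stock and volumes)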; AID 898;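 active = inhibition of 50% or more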;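 also: controls were vehicle for no effect and minimum signal wells for full effect; inactives centre near -20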
RecA splice inh: inhibitors of M. tuberculosis RecA intein splicing; AID 2221; inhibition, %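 (about 9 µM by stock and volumes)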; P9WHJ3; hit rate 0.75% among 290,000; cell-free RecA intein splicing, fluorescence; in the data active = inhibition above about 30%; inconclusive = no clear call, values can overlap the other calls;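 also: 0% = vehicle wells and 100% = reference inhibitor control wells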
Target sequence (P9WHJ3 whole entry, looked up, canonical isoform): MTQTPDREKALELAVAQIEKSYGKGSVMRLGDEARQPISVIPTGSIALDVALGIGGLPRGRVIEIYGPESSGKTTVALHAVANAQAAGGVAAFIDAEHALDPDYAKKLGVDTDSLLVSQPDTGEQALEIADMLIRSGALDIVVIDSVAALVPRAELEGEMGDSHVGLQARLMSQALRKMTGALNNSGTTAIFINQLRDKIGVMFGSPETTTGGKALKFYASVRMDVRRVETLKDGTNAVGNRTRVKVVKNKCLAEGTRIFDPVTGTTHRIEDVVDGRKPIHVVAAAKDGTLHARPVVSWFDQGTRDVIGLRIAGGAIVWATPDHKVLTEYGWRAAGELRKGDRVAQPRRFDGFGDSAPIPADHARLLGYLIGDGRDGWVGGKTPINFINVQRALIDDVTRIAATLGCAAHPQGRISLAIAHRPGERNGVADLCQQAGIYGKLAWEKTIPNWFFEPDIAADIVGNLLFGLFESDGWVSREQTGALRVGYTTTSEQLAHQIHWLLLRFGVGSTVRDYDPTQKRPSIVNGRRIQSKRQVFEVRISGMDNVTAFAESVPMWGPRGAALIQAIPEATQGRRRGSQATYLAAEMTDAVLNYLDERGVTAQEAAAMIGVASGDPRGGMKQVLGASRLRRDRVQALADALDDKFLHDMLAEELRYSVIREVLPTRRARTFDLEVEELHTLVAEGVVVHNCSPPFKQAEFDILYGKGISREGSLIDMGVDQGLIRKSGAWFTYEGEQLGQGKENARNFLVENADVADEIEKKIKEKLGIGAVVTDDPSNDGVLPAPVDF
Mtb bLac sens: beta-lactam sensitization of Mtb H37Rv; M. tuberculosis H37Rv growth with meropenem, percent inhibition; hits of this screen are not shown here; inhibition, % at 25 µM; hit rate 0.27% among 330,000; AID 434955;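 active = about 74% or more and at least 40 points above the plate without the antibiotic, then above 30% in a dose series; inconclusive = first-round hits that could not be retested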;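 also: growth measured after seven days incubation then overnight dye step; 0% = bacteria only wells and 100% = bacteria with antibiotic; twin plates without the antibiotic show which effects depend on it; some results filed as inactive read as strong as hits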
Arbovirus inh repeat: recorded beside Arbovirus inh, whose call it bears; inhibition, %; measured here: 10K subset replicate screen; many hits read low in the repeat;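 first of two repeat runs on a subset; 0% = infected and 100% = uninfected wells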
Active calls of the source: *. Not all compounds are listed; the hit share may differ from the screen's.

What do the screens show for `Clc1ccc(-c2nnc(SCc3nc(-c4ccccc4)no3)o2)cc1`?
Arbovirus inh: 8; Mtb H37Rv: inconclusive; YopH PTP inh: -38; RecA splice inh: -3.5; Mtb bLac sens: 77; Arbovirus inh repeat: -1

How did COc1ccc(-c2cn(-c3ccc(Br)cc3)c3[n+]2CCS3)cc1 do in these assays?
Arbovirus inh: -3; Mtb H37Rv: 6%; YopH PTP inh: -49; RecA splice inh: -3.8; Mtb bLac sens: 8

What do the screens show for `Cc1nc(C(=O)NNC(=O)c2cccc(Cl)c2)c(C(F)(F)F)o1`?
Mtb H37Rv: -5%; RecA splice inh: -2.0; Mtb bLac sens: 53

How did Cc1cccc(N(C(=O)CCC(=O)Nc2cc(C)on2)C(C(=O)NC2CCCC2)c2ccc(C)o2)c1 (centres undefined) do in these assays?
Arbovirus inh: 3; RecA splice inh: -1.3; Mtb bLac sens: 8

How did Cc1cc(N/N=C/c2ccccc2[N+](=O)[O-])nc(-n2nc(C)cc2C)n1 do in these assays?
Mtb H37Rv: inconclusive; RecA splice inh: 0.5; Mtb bLac sens: 96

What do the screens show for `Cc1cc(Cl)ccc1NC(=S)N1CCN(Cc2ccc3c(c2)OCO3)CC1`?
Arbovirus inh: 5; Mtb H37Rv: 5%; YopH PTP inh: -13; RecA splice inh: -1.0; Mtb bLac sens: 2

Results for C/C(=N\n1c(C)cc(C)c(C#N)c1=O)c1cccs1 ?
Arbovirus inh: 3; Mtb H37Rv: -14%; YopH PTP inh: -27; RecA splice inh: -0.1

How did O=C(O)/C=C/c1coc2ccccc2c1=O do in these assays?
Arbovirus inh: -8; Mtb H37Rv: 10%; YopH PTP inh: -8; RecA splice inh: -1.6; Mtb bLac sens: -2

Results for O=c1[nH][nH]c(-c2ccccc2)c1C=Nc1ccc(C(F)(F)F)cc1 ?
Arbovirus inh: 8; Mtb H37Rv: 3%; RecA splice inh: 2.3; Mtb bLac sens: 3

How did CSc1ccc(Cl)c(C(=O)NNC(=O)c2csc(N3CCOCC3)n2)c1 do in these assays?
RecA splice inh: -1.5; Mtb bLac sens: 51

Results for C/C(=N\NS(=O)(=O)c1ccc(C)cc1)c1ccc(C)s1 ?
Arbovirus inh: -3; Mtb H37Rv: -1%; YopH PTP inh: -8; RecA splice inh: -1.1; Mtb bLac sens: -9

Results for Cc1nc2c(C)cccn2c(=O)c1NC(=O)COc1ccccc1 ?
RecA splice inh: 0.0; Mtb bLac sens: 5

Results for CCOc1ccc(C(C)=O)cc1Cc1c(O)[nH]c(=S)[nH]c1=O ?
RecA splice inh: -2.9; Mtb bLac sens: 4

What do the screens show for `CC(=O)c1c(C)[nH]c(C(=O)NNC(=O)COc2ccc(Cl)cc2C)c1C`?
RecA splice inh: 7.9; Mtb bLac sens: -17

How did CCOC(=O)C1CCCN(C(=O)c2cn(CC)c3ccc(S(=O)(=O)N(C)C)cc3c2=O)C1 (centres undefined) do in these assays?
Arbovirus inh: 8; Mtb H37Rv: -1%; YopH PTP inh: -48; Mtb bLac sens: -1; Arbovirus inh repeat: 4

What do the screens show for `CC(C)CC(NC(=O)c1ccc(Cl)cc1Cl)C(=O)O` (centres undefined)?
Arbovirus inh: 10; Mtb H37Rv: -1%; YopH PTP inh: -33; RecA splice inh: -1.2; Mtb bLac sens: 4

What do the screens show for `O=C(CNC(=O)c1ccc2c(c1)S(=O)(=O)N=C1CCCCCN12)Nc1ccc(F)c(F)c1`?
RecA splice inh: 0.1; Mtb bLac sens: -14

What do the screens show for `Cc1ccc(NS(=O)(=O)c2cccc(C(=O)OCC(=O)NCc3ccco3)c2)cc1`?
Arbovirus inh: -5; Mtb H37Rv: 12%; YopH PTP inh: -7; RecA splice inh: 2.1; Mtb bLac sens: 3

Results for CC1CCCN(C/C=C/c2ccccc2[N+](=O)[O-])C1 (centres undefined) ?
Arbovirus inh: 0; Mtb H37Rv: -17%; YopH PTP inh: -17; RecA splice inh: -1.7; Mtb bLac sens: -7

What do the screens show for `Cc1c(NC(=O)c2ccc(S(=O)(=O)N3CCOCC3)cc2)c(=O)n(-c2ccccc2)n1C`?
Mtb H37Rv: 0%; RecA splice inh: 2.6; Mtb bLac sens: 3

What do the screens show for `COc1cccc(CN2CC(C(=O)NC3CCC3)CCC2=O)c1` (centres undefined)?
RecA splice inh: 0.9; Mtb bLac sens: 0

How did COC(=O)C(C)(C)ONC(=O)Nc1ccc(Br)cc1 do in these assays?
Arbovirus inh: -20; Mtb H37Rv: 19%; YopH PTP inh: -21; RecA splice inh: 0.9; Mtb bLac sens: 4

How did COc1ccc(-n2nnnc2CNC(=O)C(=O)c2c[nH]c3ccccc23)cc1 do in these assays?
RecA splice inh: 1.0; Mtb bLac sens: -3

How did O=C(CCCC(=O)OCC(Cl)=C(Cl)Cl)Nc1cccc(F)c1 do in these assays?
Arbovirus inh: 6; Mtb H37Rv: 1%; YopH PTP inh: -26; RecA splice inh: 3.5; Mtb bLac sens: 5

What do the screens show for `O=[N+]([O-])c1c(Nc2ccccn2)cc(Cl)c2nonc12`?
Mtb H37Rv: 7%; RecA splice inh: 87*; Mtb bLac sens: 99

What do the screens show for `C/C(=N\NC(=O)c1cc(Br)ccc1O)c1cccc(NC(=O)c2ccccc2F)c1`?
RecA splice inh: 2.8; Mtb bLac sens: -8

What do the screens show for `CCOC(=O)C(NC(=O)C1C(C)N1S(=O)(=O)c1ccc(C)cc1)C(=O)OCC` (centres undefined)?
RecA splice inh: 0.0; Mtb bLac sens: -5

Results for COc1ccccc1NC(=O)Nc1ccc(NC(=O)c2ccccc2O)cc1 ?
RecA splice inh: -5.6; Mtb bLac sens: 7

What do the screens show for `CS(=O)(=O)N1CCN(C(=O)COc2ccccc2)CC1`?
Arbovirus inh: 3; Mtb H37Rv: -1%; RecA splice inh: -3.6; Mtb bLac sens: -4

What do the screens show for `CCCCn1nc(C(=O)Nc2nc3c(s2)CCCC3)c2ccccc2c1=O`?
Arbovirus inh: 3; Mtb H37Rv: 78%; YopH PTP inh: -33; Mtb bLac sens: 60

What do the screens show for `COCCNC(=O)c1ccc(CS(=O)(=O)c2ccccc2OC)o1`?
RecA splice inh: -1.0; Mtb bLac sens: -2

Results for CCc1ccc2[nH]c(=O)c(C(c3nnnn3CC3CCCO3)N3CCCc4ccccc43)cc2c1 (centres undefined) ?
Arbovirus inh: 0; Mtb H37Rv: 7%; YopH PTP inh: -21; RecA splice inh: 7.1; Mtb bLac sens: 5

How did NC(=S)NNC(=O)c1cccc(Cl)c1 do in these assays?
Mtb H37Rv: 14%; RecA splice inh: 0.7; Mtb bLac sens: 2

How did O=[N+]([O-])c1ccccc1/C=N/N1CCN(c2ccc(Cl)cc2)CC1 do in these assays?
Arbovirus inh: -2; Mtb H37Rv: -2%; YopH PTP inh: -14; RecA splice inh: 0.6; Mtb bLac sens: -1

What do the screens show for `COP(=O)(Cc1ccc(C#N)o1)OC`?
Mtb H37Rv: -9%; RecA splice inh: -0.3; Mtb bLac sens: -8

Results for CCOC(=O)c1ccccc1N=N/C(C(C)=O)=C(/C)O ?
Arbovirus inh: -2; Mtb H37Rv: -7%; YopH PTP inh: -36; RecA splice inh: 2.8; Mtb bLac sens: 1

What do the screens show for `Cc1cccc(NC(=O)c2sc(Cl)nc2C)c1C`?
Arbovirus inh: -9; Mtb H37Rv: 3%; YopH PTP inh: 8; RecA splice inh: 1.4; Mtb bLac sens: -7

How did Cc1ccc(NC(=O)c2ccccc2F)cc1S(=O)(=O)N1CCCCCC1 do in these assays?
Arbovirus inh: 5; Mtb H37Rv: 9%; RecA splice inh: 7.7; Mtb bLac sens: 7

How did CCCC1=NCCn2cccc21 do in these assays?
Arbovirus inh: 3; Mtb H37Rv: 4%; YopH PTP inh: -5; RecA splice inh: -1.5; Mtb bLac sens: -12

How did Cc1ccc(C(=O)NCC(=O)OCC(=O)/C=C2\N(C)c3ccccc3C2(C)C)cc1C do in these assays?
Arbovirus inh: 3; Mtb H37Rv: 5%; YopH PTP inh: -13; RecA splice inh: 2.1; Mtb bLac sens: -8

How did COc1cc(CN2CC3CC(C2)c2cccc(=O)n2C3)cc(OC)c1OC (centres undefined) do in these assays?
Arbovirus inh: 5; Mtb H37Rv: -5%; YopH PTP inh: -21; RecA splice inh: -1.6; Mtb bLac sens: -1; Arbovirus inh repeat: 1

How did CCCCC(CC(O)COCC(C)C)C(=O)NNC(=S)Nc1ccccc1 (centres undefined) do in these assays?
Arbovirus inh: 1; Mtb H37Rv: -5%; YopH PTP inh: -43; RecA splice inh: -2.3; Mtb bLac sens: -5

How did c1ccc(-n2nnnc2Sc2n[nH]c(-c3ccncc3)n2)cc1 do in these assays?
Arbovirus inh: 15; Mtb H37Rv: -5%; YopH PTP inh: 3; RecA splice inh: 2.5; Mtb bLac sens: 9

What do the screens show for `Cc1nc2c(C)cccn2c(=O)c1NC(=O)c1cccs1`?
RecA splice inh: -1.5; Mtb bLac sens: 0

Results for O=C(Cc1ccc(F)cc1)N/N=C/c1ccncc1 ?
Arbovirus inh: 19; Mtb H37Rv: 5%; YopH PTP inh: -11; RecA splice inh: -0.3; Mtb bLac sens: inconclusive

How did O=C(c1ccc(-c2nnc(Nc3cccc(Cl)c3)c3ccccc23)cc1)N1C[C@H]2C[C@H](C1)c1cccc(=O)n1C2 do in these assays?
Arbovirus inh: -30; Mtb H37Rv: 7%; YopH PTP inh: 4; RecA splice inh: 11; Mtb bLac sens: -5

Results for C=CCN1C(=O)NC(=O)/C(=C/c2ccc(OC)c(CSc3ccccn3)c2)C1=O ?
Arbovirus inh: -1; Mtb H37Rv: -9%; YopH PTP inh: 0; RecA splice inh: 4.3; Mtb bLac sens: 2

What do the screens show for `Cc1[nH]c2ccccc2c1/C=N/Nc1nc(Nc2ccccc2)nc(N2CCOCC2)n1`?
Arbovirus inh: -8; Mtb H37Rv: 17%; YopH PTP inh: -3; RecA splice inh: -1.7; Mtb bLac sens: 95

What do the screens show for `Cc1ccc(NC(=O)CN2CCC(NC(=O)Cc3ccccc3)CC2)cc1C`?
Arbovirus inh: -3; Mtb H37Rv: -10%; YopH PTP inh: -14; RecA splice inh: -1.2; Mtb bLac sens: 4

Results for COC(=O)[C@@]12CCCN1[C@H](c1ccc(-c3ccc4c(c3)OCO4)c(OC)c1)[C@H]1C(=O)N(C)C(=O)[C@H]12 ?
RecA splice inh: -4.3; Mtb bLac sens: -8

What do the screens show for `Fc1ccc(-[n+]2nc(Nc3ccccc3)sc2-c2c3ccccc3cc3ccccc23)cc1`?
RecA splice inh: 49*; Mtb bLac sens: 100

How did O=c1oc2ccccc2cc1-c1nc(-c2ccccc2)no1 do in these assays?
Arbovirus inh: 1; Mtb H37Rv: 23%; YopH PTP inh: -26; RecA splice inh: -0.2; Mtb bLac sens: 73

What do the screens show for `COCCNC(=S)NC1CC2CCCC(C1)N2Cc1cccs1` (centres undefined)?
Arbovirus inh: 13; Mtb H37Rv: -6%; YopH PTP inh: -25; RecA splice inh: -3.0; Mtb bLac sens: 9

How did CC1(C)CC(=O)C(C=NCCN2CCN(C(=O)c3ccc(Br)cc3)CC2)=C(O)C1 do in these assays?
Arbovirus inh: -4; Mtb H37Rv: -7%; YopH PTP inh: -16; RecA splice inh: 1.1; Mtb bLac sens: -4

What do the screens show for `CCn1ncc(Br)c1C(=O)Nc1ccc(F)cc1F`?
Arbovirus inh: 3; Mtb H37Rv: -17%; YopH PTP inh: -15; RecA splice inh: 0.9; Mtb bLac sens: 5

What do the screens show for `COc1ccccc1NC(=O)NCCN1CCN(C(=O)Nc2ccccc2OC)CC1`?
Arbovirus inh: 6; Mtb H37Rv: -5%; RecA splice inh: 1.3; Mtb bLac sens: -1

What do the screens show for `CCN(CC)CCNC(=O)c1ccc(NC(=O)c2cccc(-n3cnnn3)c2)cc1`?
RecA splice inh: -2.3; Mtb bLac sens: 1

How did CC(C)[C@H](NC(=O)c1ccc(F)cc1)C(=O)NC1=NCCS1 do in these assays?
Arbovirus inh: -1; Mtb H37Rv: -5%; Mtb bLac sens: -8

Results for COc1ccc(NC(=O)CSc2ccccn2)cc1OC ?
Arbovirus inh: -4; Mtb H37Rv: -4%; YopH PTP inh: -21; RecA splice inh: 0.2; Mtb bLac sens: 3

Results for COc1ccc(C(=O)NNC(=O)Cc2nc3nc(C)cc(C)n3n2)cc1 ?
RecA splice inh: 1.7; Mtb bLac sens: -6

2 records picked at random from those above, as already listed:
What do the screens show for `COc1ccccc1NC(=O)NCCN1CCN(C(=O)Nc2ccccc2OC)CC1`?
Arbovirus inh: 6; Mtb H37Rv: -5%; RecA splice inh: 1.3; Mtb bLac sens: -1

How did COc1cc(CN2CC3CC(C2)c2cccc(=O)n2C3)cc(OC)c1OC (centres undefined) do in these assays?
Arbovirus inh: 5; Mtb H37Rv: -5%; YopH PTP inh: -21; RecA splice inh: -1.6; Mtb bLac sens: -1; Arbovirus inh repeat: 1

Screening results deposited in PubChem BioAssay by several laboratories.
